Compound activity deposited in PubChem by several laboratories.
E coli growth: inhibitors of Escherichia coli growth; OD600, 23 h; stronger effect = lower value; actives 0.21% (n = 330,000); OD600 absorbance (test concentration not listed);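 active means OD600 absorbance below the run mean of sample wells minus 3.6 SD, in any replicate, cut at about 0.56 in these data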;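 further: stock transfer was 300 nL into about 60 µL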
FGF22 binding: shifts melting point of recombinant human FGF22; Q9HCT0; recombinant FGF22 thermal shift, SYPRO orange fluorescence; percent of sucrose octasulfate shift, DMSO zero; calls only at 9.99 µM; actives 1.5% (n = 340,000);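 active means melting point raised past a set limit in the mean and every replicate; inconclusive means no clear call; three in four hits are not shown here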
Target sequence (Q9HCT0 whole entry, looked up): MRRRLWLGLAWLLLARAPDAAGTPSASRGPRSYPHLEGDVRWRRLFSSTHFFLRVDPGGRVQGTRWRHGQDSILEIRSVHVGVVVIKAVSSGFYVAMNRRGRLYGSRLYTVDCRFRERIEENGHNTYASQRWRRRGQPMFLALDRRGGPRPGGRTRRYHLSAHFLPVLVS
AF4-AF9 inh: MLL-AF4/AF9 protein interaction inhibition; AlphaScreen, biotin-AF4 peptide binding to FLAG-AF9; inhibition, % at 10 µM; actives 0.47% (n = 350,000); P42568; AID 651704;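 active means every replicate reaching a set inhibition limit, whatever the replicate mean, cut at about 25% in these data; inconclusive means mean inhibition reaches that limit but some replicates miss it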;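 further: 0% = plate neutral control median and 100% = total signal loss; the record names both 10 and 1 µM as test concentration; the first replicate is given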
Target sequence (P42568 whole entry, looked up): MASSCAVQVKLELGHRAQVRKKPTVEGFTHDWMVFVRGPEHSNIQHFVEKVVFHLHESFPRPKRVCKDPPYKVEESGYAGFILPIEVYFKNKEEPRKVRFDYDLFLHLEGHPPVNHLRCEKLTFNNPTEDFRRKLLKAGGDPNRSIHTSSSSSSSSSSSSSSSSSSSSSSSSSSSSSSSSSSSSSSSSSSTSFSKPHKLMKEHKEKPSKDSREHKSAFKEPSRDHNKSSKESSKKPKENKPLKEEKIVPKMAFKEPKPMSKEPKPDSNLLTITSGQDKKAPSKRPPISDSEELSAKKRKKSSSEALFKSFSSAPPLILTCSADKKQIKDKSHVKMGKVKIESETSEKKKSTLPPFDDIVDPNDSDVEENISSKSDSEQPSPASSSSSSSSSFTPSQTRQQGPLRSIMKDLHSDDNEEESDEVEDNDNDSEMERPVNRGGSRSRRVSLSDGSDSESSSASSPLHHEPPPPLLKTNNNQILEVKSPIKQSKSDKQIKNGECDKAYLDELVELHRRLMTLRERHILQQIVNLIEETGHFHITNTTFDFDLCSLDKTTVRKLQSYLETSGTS
Ecoli rRNA inh: inhibits bacterial ribosomal RNA function over humanized ribosomes; actives 1.6% (n = 350,000); GFP signal change (wild-type ribosome), % (test concentration not listed); E. coli WT GFP vs humanized-ribosome RFP mutants, fluorescence, 24 h; stronger effect = lower value; DMSO median 0, no signal -100;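 active means significant combined selectivity score with lowered wild-type GFP, culture density cut under 30%, mutant RFP and density less affected; inactive means any of these conditions unmet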; further: one replicate is shown; some compounds called inactive have numbers as strong as hits
T cruzi inh: blocks replication of Trypanosoma cruzi; AID 1885; actives 1.4% (n = 300,000); inhibition, % (no concentration beside the values); T. cruzi beta-gal in NIH3T3, luminescence, 90 h;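 active means mean inhibition across valid replicates above about 55%, limit read from the data; inconclusive means mean below that limit but half or more replicates reach it; inactive means mean below it, under half of replicates reach it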;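 further: signal also drops with host cell toxicity which is not excluded here; 0% = plate median of DMSO wells and 100% = zero luminescence signal; higher percent means less beta-gal luminescence so fewer parasites; stock transfer was 50 nL into about 50 µL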
Beta cell apopt: blocks beta cell apoptosis. protection from apoptosis, % (test concentration not listed). INS-1E cytokine-induced death, ATP luminescence, 48 h; percent of positive-control rescue, neutral wells zero. actives 0.8% (n = 300,000);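 active means all replicates at 75% or more, or half of them and the mean; inconclusive means half reach 75% but not the mean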;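 further: 0% = cytokine-treated negative control wells and 100% = positive control rescue; higher means more ATP so stronger rescue from cytokine killing; wells of about 40 µL received 100 nL stock; the first replicate is given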
UCH37 DUB inh: human UCH37 deubiquitinating enzyme inhibition | Q9Y5K5 | purified proteasome/UCH37, Ub-AMC cleavage fluorescence | inhibition, % (concentration not given with the values) | actives 0.33% (n = 330,000);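 active means mean of two replicates above 20%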;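 further: 0% = compound-free wells with enzyme and 100% = wells lacking proteasome; stock transfer was 100 nL into about 20 µL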
Target sequence (Q9Y5K5 whole entry, looked up): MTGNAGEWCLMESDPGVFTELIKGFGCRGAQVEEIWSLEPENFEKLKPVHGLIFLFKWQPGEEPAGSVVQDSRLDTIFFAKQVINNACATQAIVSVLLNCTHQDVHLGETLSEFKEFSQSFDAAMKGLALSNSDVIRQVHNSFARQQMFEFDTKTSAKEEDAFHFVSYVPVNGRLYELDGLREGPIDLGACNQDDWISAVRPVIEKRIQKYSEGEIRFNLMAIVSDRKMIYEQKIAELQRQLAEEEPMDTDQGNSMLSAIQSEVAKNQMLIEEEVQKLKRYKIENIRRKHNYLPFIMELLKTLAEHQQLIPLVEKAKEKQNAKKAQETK
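assay system = human UCH37 enzyme supplied as purified proteasome complex | amount = proteasome at 0.15 nM in the dispensed enzyme solution | schedule = 30 min compound-proteasome preincubation then 25 min substrate reaction, room temperature | measured by = fluorescence, ex 355 nm, em 460 nm | benchmarks = no-proteasome wells (full inhibition) and compound-free wells (no inhibition)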
Bfl-1 A1 inh: inhibitors of the anti-apoptotic protein A1, read as caspase activation; MEF A1-2A-BIM cells, Caspase-Glo 3/7 luminescence, 3 h; percent of clofoctol response, vehicle zero; caspase activation, % (concentration not given with the values); actives 0.066% (n = 330,000); AID 2462;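 active means over half of replicate activation scores above 10%, or exactly half above 10 with the replicate mean above 10; inconclusive means replicate mean below 10 yet half the replicates above 10; inactive means over half of replicates below 10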;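 further: wells of about 30 µL received 50 nL stock; many hits fall short of the cut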
Ecoli rRNA inh OD600: second read-out of Ecoli rRNA inh, no call of its own (marks repeat the call); OD600 change, %; measured here: OD600 growth;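 optical density of the mix in the first replicate; 0 = DMSO median and -100 = no signal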
Ecoli rRNA inh RFP: further read-out of Ecoli rRNA inh, marked with its call; RFP signal change, %; measured here: RFP humanized mutant strains;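 first replicate; 0 = DMSO median and -100 = no signal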
The depositor's hits bear a star; i = inactive; ? = inconclusive; nt = no result given. An excerpt; the hit share may differ from the screen's.

SMILES	E coli growth	FGF22 binding	AF4-AF9 inh	Ecoli rRNA inh	Ecoli rRNA inh OD600	Ecoli rRNA inh RFP	T cruzi inh	Beta cell apopt	UCH37 DUB inh	Bfl-1 A1 inh
Cc1nc(S/C(C(=O)O)=C2/C(=O)Nc3ccccc32)n[nH]1	0.653	i	4.2	-0.9	8.6	10.2	-2.3	-1.0	4.5	-6.2
COc1cc(C(=O)NCCC(=O)NCCc2ccc(Cl)cc2)cc(OC)c1OC	0.644	nt	nt	nt	nt	nt	7.5	-0.5	5.2	0.4
CNC(=S)NCCc1c[nH]c2ccc(OC)cc12	0.701	i	5.7	9.8	4.1	0.0	-10.0	-0.4	2.7	0.1
O=C(N/C=C\n1cnc2cc(C(F)(F)F)ccc21)c1ccc([N+](=O)[O-])cc1	0.666	i	13.7	4.0	-0.3	3.7	18.3	-4.1	4.6	0.2
CC(=O)NNc1cc(=O)c2c(=O)n(C)c(=O)n(C)c2[nH]1	0.744	nt	nt	nt	nt	nt	-16.1	-9.9	0.3	-0.8
O=C(C(=O)N1CCCc2ccccc21)N1CCCc2ccccc21	0.702	i	-4.7	4.9	-0.5	1.0	0.3	-5.8	3.1	0.3
O=C(CN1C(=O)NC2(CCCCCCC2)C1=O)N1CCc2ccccc2C1	0.749	nt	nt	nt	nt	nt	4.1	0.0	0.4	-0.1
Cc1cc(Br)cc2c(C(=O)Nc3c(C)n(C)n(-c4ccccc4)c3=O)cc(-c3cccs3)nc12	0.716	nt	nt	nt	nt	nt	39.5	44.5	-0.8	-0.1
O=C(Nc1cccn(Cc2cccc(F)c2)c1=O)NC1CCCCC1	0.709	i	0.5	0.8	5.2	-7.9	-16.1	3.4	-12.8	-1.5
CN1CCN(NC(=O)c2cc(-c3ccc(Br)s3)nc3ccccc23)CC1	0.69	i	3.0	-17.4	-21.9	-4.7	22.5	1.9	-129.8	0.1
CC(C)N(C(=O)[C@H]1C[C@H](CC(=O)NCC23CC4CC(CC(C4)C2)C3)C(=O)N2CCc3c([nH]c4ccc(Cl)cc34)[C@]12C)C(C)C	0.684	i	3.2	10.1	28.6	-0.8	nt	nt	-0.1	nt
C/C(=N\Nc1ccc([N+](=O)[O-])cc1)c1ccco1	nt	i	0.4	11.8	9.4	-1.5	9.4	10.9	nt	-5.7
CCc1ccc2nc(NC(=O)CSCc3c(C)noc3C)sc2c1	0.683	nt	nt	nt	nt	nt	12.2	1.6	1.5	0.3
CCn1c(=O)n(CC(=O)NCc2ccccc2OC)c(=O)c2ccccc21	0.786	nt	nt	nt	nt	nt	3.0	-3.0	1.5	-0.1
Cc1ccnc(SCC(=O)N2CCc3ccccc3C2)n1	0.685	i	-1.1	0.2	2.6	0.4	-6.8	nt	7.2	-0.1
COc1cccc(N(C(=O)C2COc3ccccc3O2)C(C(=O)NC2CCCCC2)c2ccc(O)cc2)c1 (centres undefined)	0.724	i	1.7	12.8	10.9	-6.6	3.4	7.1	0.6	0.5
COc1ccccc1NC(=O)C1CCCN(S(=O)(=O)c2c(C)noc2C)C1 (centres undefined)	0.673	i	-0.9	3.5	2.9	-1.9	4.0	-5.0	4.5	-0.2
O=C(NC(=Nc1nc2ccccc2o1)NC(=O)c1ccccc1)c1ccccc1	0.646	nt	nt	nt	nt	nt	-2.1	-3.8	-50.8	-0.2
COc1cc(CNc2ccc(NC(C)=O)cc2)ccc1OCc1ccccc1C	nt	i	2.4	9.0	5.7	-5.6	-29.6	10.4	nt	0.3
CCN1CCc2c(sc(NC(=O)Cc3ccccc3)c2C(N)=O)C1	0.77	i	-6.3	0.4	10.0	-1.0	-14.7	-17.6	0.6	nt

Pulled by structure from the list above:
SMILES	E coli growth	FGF22 binding	AF4-AF9 inh	Ecoli rRNA inh	Ecoli rRNA inh OD600	Ecoli rRNA inh RFP	T cruzi inh	Beta cell apopt	UCH37 DUB inh	Bfl-1 A1 inh
CNC(=S)NCCc1c[nH]c2ccc(OC)cc12	0.701	i	5.7	9.8	4.1	0.0	-10.0	-0.4	2.7	0.1
O=C(Nc1cccn(Cc2cccc(F)c2)c1=O)NC1CCCCC1	0.709	i	0.5	0.8	5.2	-7.9	-16.1	3.4	-12.8	-1.5

(cont.)
SMILES	E coli growth	FGF22 binding	AF4-AF9 inh	Ecoli rRNA inh	Ecoli rRNA inh OD600	Ecoli rRNA inh RFP	T cruzi inh	Beta cell apopt	UCH37 DUB inh	Bfl-1 A1 inh
COc1ccc(/C=C2\SC(=S)N(CC(=O)NNC(=O)c3ccncc3)C2=O)cc1	nt	i	-0.4	6.5	3.4	5.5	-23.8	-2.9	nt	0.1
CC(=O)NCCC(=O)Nc1cc(S(=O)(=O)N2CCOCC2)ccc1Oc1ccc(F)cc1	0.696	nt	-1.2	11.3	5.5	0.8	-7.8	1.8	0.9	0.1
COC(=O)c1ccc(OC(=O)C23CCC(C)(C(=O)O2)C3(C)C)cc1 (centres undefined)	0.657	i	1.6	5.8	13.4	-10.4	-2.8	-8.9	0.0	-0.8
COc1ccc(NC(=O)C(C)NS(=O)(=O)c2ccc(NC(C)=O)cc2)cc1Cl (centres undefined)	0.737	nt	nt	nt	nt	nt	-12.7	-3.2	5.0	0.0
CCN(C(=O)COC(=O)c1cc(-c2cccs2)nc2ccccc12)C1CCS(=O)(=O)C1 (centres undefined)	0.72	i	3.7	-22.6*	-2.9*	-1.3*	-9.5	-5.6	-398.1	-1.2
O=C(c1ccc2c(c1)OCO2)N1CCC2(CC1)Oc1ccc(Cl)cc1C(=O)C21CC(c2cccnc2)=NO1 (centres undefined)	0.68	i	nt	1.3	-6.1	0.1	15.1	-5.3	-0.3	0.8
COc1cccc(/C=C2\SC(=O)N(CC(=O)NCCCn3ccnc3)C2=O)c1	0.637	i	-1.5	1.7	-3.4	0.5	4.2	5.7	4.0	-0.2
COc1ccc(C(=O)NCc2nnc(SC)n2C2CCCCC2)cc1	0.725	i	-4.7	-12.0	-18.1	-0.4	12.3	nt	4.1	0.5
Cc1sc2ncnc(SCC(=O)Nc3ccc(S(=O)(=O)N4CCOCC4)cc3)c2c1C	0.664	i	1.6	-3.0	-1.9	6.3	nt	7.6	0.4	-0.3
CCCn1nc(NC(=O)c2cccs2)c2cc3ccc(C)cc3nc21	0.648	i	nt	10.3	14.9	2.3	9.5	-6.0	-102.7	-0.5
Nc1ccc(-c2nc3cc(N)ccc3s2)cc1	0.675	i	-0.2	-12.5	-8.6	-14.4	nt	2.2	-64.8	-9.8
CC(=O)NNS(=O)(=O)c1ccc(-c2cc(C(F)(F)F)n(C)n2)s1	0.723	i	-1.9	14.9	3.8	4.0	3.4	0.9	3.8	-0.6
O=C(COC(=O)c1cc(S(=O)(=O)N2CCCC2)ccc1O)Nc1ccc(S(=O)(=O)N2CCOCC2)cc1	0.702	i	2.3	1.6	9.6	5.8	-18.6	-10.0	-8.9	-0.1
COc1ccccc1CNC(=O)CNC(=O)c1cn(-c2ccccc2OC)c(=O)c2ccccc12	0.712	i	-4.0	1.5	4.6	-1.5	12.9	2.6	3.2	0.6
COc1ccccc1NS(=O)(=O)c1ccc(C)c(C(=O)NC2CCN(Cc3ccccc3)CC2)c1	0.686	i	3.4	11.6	6.9	0.2	nt	nt	0.6	nt
COCc1cc(C)nc2sc(C(=O)N3CCCC3)c(N)c12	0.676	i	-53.2	11.2	13.7	-4.8	6.6	-3.3	-0.7	0.9
COc1ccccc1NC(=O)CSc1c2c(nc3ccccc13)CCC2	0.636	nt	nt	nt	nt	nt	2.7	-11.5	6.4	0.7
O=C(O)CCNc1cc(N2CCN(C(=O)c3ccco3)CC2)c2noc3c2c1C(=O)c1ccccc1-3	nt	i	55.7*	-14.2	15.6	50.5	-0.1	17.7	nt	-0.3
CCC1=NC(c2ccccc2OC)N(O)C1(C)C (centres undefined)	0.734	i	-30.2	16.9	11.2	-9.3	-6.3	0.7	1.8	-0.9
Fc1ccc(N/N=C/c2cccnc2)c(F)c1	nt	i	7.5	0.0	4.2	1.5	0.6	0.4	nt	-0.7
CN(c1ccccc1)S(=O)(=O)c1ccc(C(=O)Nc2nnc(C3CC3)o2)cc1	0.707	nt	0.0	-25.4	-32.3	-7.5	?	-0.7	1.9	0.5
O=C(N/N=C/c1ccc(OC(=O)c2ccccc2)cc1)c1cccnc1	nt	i	0.4	4.3	1.0	-2.9	-6.3	0.4	nt	-3.8
O=C(CCl)N1c2ccccc2Oc2ccc3ccccc3c21	0.663	i	18.9	-4.6	-23.4	7.1	nt	nt	-21.1	nt
Cc1ccc(S(=O)(=O)N(C)C)cc1NC(=O)CCCNC(=O)c1ccc(Cl)cc1	0.693	i	-1.7	5.0	4.5	-0.3	-3.2	-2.5	-0.4	0.3
CCOCCCNC(=O)c1ccc(C2SCC(=O)N2Cc2ccccc2)cc1 (centres undefined)	0.721	i	0.4	-4.2	-2.1	-0.6	17.2	-0.7	4.0	0.6
O=C1C2C3C=CC(CC3)C2C(=O)N1/N=C/c1c(O)ccc2ccccc12 (centres undefined)	nt	i	-1.8	9.5	13.8	3.3	-4.8	-5.2	nt	1.0
Cc1cc(-c2nnc(CCC(=O)NC(c3ccccc3)c3ccccc3)o2)no1	0.652	i	0.0	14.0	15.9	0.4	1.4	-1.9	-0.9	0.3
CCc1nnc(NC(=O)CN2CCN(Cc3ccc(F)cc3)CC2)s1	0.645	i	-1.0	-5.0	4.6	-2.2	33.0	0.3	-2.7	0.8
COc1ccc2cc3c(N)nn(C(=O)c4cccc([N+](=O)[O-])c4)c3nc2c1	0.677	nt	nt	nt	nt	nt	-5.1	-19.3	1.2	-0.7
CCN(C(=O)COC(=O)c1ccc(OCc2c(C)noc2C)cc1)c1ccccc1	0.782	nt	nt	nt	nt	nt	7.3	-5.8	6.6	0.3
FC(F)Oc1ccc(NC(=S)NCc2ccco2)cc1Cl	0.574	i	3.7	-29.1*	-8.2*	5.7*	10.9	-13.0	3.8	0.5
C1=C(c2ccccc2)CCN(c2ncnc3nc[nH]c23)C1	0.72	i	-0.5	4.6	13.0	-0.3	0.3	3.2	2.6	-0.5
CCOc1ccc(OCCC(=O)OCC(=O)N(CC)c2c(N)n(Cc3ccccc3)c(=O)[nH]c2=O)cc1	0.638	i	3.6	18.1	24.1	-1.1	nt	nt	-0.3	nt
Cc1cccc(C(=O)NNC(=O)c2ccccc2[N+](=O)[O-])c1	0.681	i	0.5	8.1	10.6	-0.4	-5.8	-0.3	2.3	0.9
CCOC(=O)C1=C(C)NC(C)=C(C(=O)OCC)C1C(=O)OCC(=O)N(C)C1CCS(=O)(=O)C1 (centres undefined)	0.728	i	-3.3	18.1	5.1	4.3	0.9	-1.9	-17.0	0.0
CCOC(=O)c1c(C)nc2c(c1-c1ccc(OC)c(OC)c1)C(=O)c1ccccc1-2	0.66	i	-84.9	-0.4	-4.3	-4.8	8.4	1.1	5.2	0.2
O=S(=O)(c1ccc(F)cc1)N1CCCNCC1	0.682	i	-2.9	10.0	9.1	0.7	0.1	-6.8	1.2	0.4
CCOC(=O)n1c(=O)n(Cc2cccc(F)c2)c2ccccc21	0.646	i	1.1	-11.5	-16.5	-6.4	-5.6	-3.2	-0.5	-0.9
